Screening data from PubChem BioAssay.
LANA-H2A inh = blocks KSHV LANA binding to histone H2A/H2B | Q9QR71 | cell-free LANA-H2A/H2B peptide, fluorescence polarization | inhibition, % (test concentration not listed) | 0.6% of 320,000 active; in the data active = inhibition mostly above about 10%, no sharp cut-off; inactive = mostly below about 6.7%;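 note: stock transfer was 7.5 nL into about 10 µL; 0% = median of vehicle wells and 100% = median of positive control wells; one replicate is shown; the record names a cut of 25% in any replicate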
RanGTP-Impb inh = disruptors of Ran-importin-beta complex formation – biochemical, FRET, CFP-Ran, YFP-importin-beta, homogeneous, primary screen | cell-free CFP-Ran/YFP-importin-beta FRET ratio | inhibition, % (no concentration beside the values) | 1.1% of 300,000 active;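 active = most replicates above 15%; inconclusive = exactly half above 15%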;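 note: 0% = DMSO wells and 100% = Ran loaded with GDP instead of GTP; wells of about 40 µL received 100 nL stock; the first replicate is given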
Calb FLC = C. albicans growth modulation with fluconazole | C. albicans CaCi-2 (fluconazole-resistant clinical isolate) + fluconazole, Alamar Blue growth, 48 h | growth inhibition, % (concentration not given with the values) | 0.57% of 300,000 active | AID 1979;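 active = most replicates above 75%; inconclusive = exactly half above 75%; inactive = most below 75%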;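 note: all wells also contain fluconazole at 8 µg/ml as a sub-toxic cotreatment; 0% = median of DMSO wells and 100% = median of geldanamycin control wells; wells of about 8 µL received 7.5 nL stock; the first replicate is given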
Bfl-1 A1 inh = inhibitors of the anti-apoptotic protein A1, read as caspase activation; MEF A1-2A-BIM cells, Caspase-Glo 3/7 luminescence, 3 h; percent of clofoctol response, vehicle zero; caspase activation, % (no concentration beside the values); 0.066% of 330,000 active;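 active = over half of replicate activation scores above 10%, or exactly half above 10 with the replicate mean above 10; inconclusive = replicate mean below 10 yet half the replicates above 10; inactive = over half of replicates below 10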;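 note: wells of about 30 µL received 50 nL stock; many hits fall short of the cut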
Beta apoptosis = beta cell apoptosis inhibition. INS-1E cytokine-induced death, ATP luminescence, 48 h; percent of positive-control rescue, neutral wells zero. protection from apoptosis, % (no concentration beside the values). 0.8% of 300,000 active;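 active = all replicates at 75% or more, or half of them and the mean; inconclusive = half reach 75% but not the mean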;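 note: 0% = cytokine-treated negative control wells and 100% = positive control rescue; higher means more ATP so stronger rescue from cytokine killing; wells of about 40 µL received 100 nL stock; the first replicate is given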
UCH37 inh = inhibitors of human deubiquitinating enzyme UCH37; inhibition, % (concentration not given with the values); purified proteasome/UCH37, Ub-AMC cleavage fluorescence; AID 588478; 0.33% of 330,000 active; Q9Y5K5;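 active = mean of two replicates above 20%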;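 note: 0% = compound-free wells with enzyme and 100% = wells lacking proteasome; stock transfer was 100 nL into about 20 µL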
Target sequence (Q9Y5K5 whole entry, looked up): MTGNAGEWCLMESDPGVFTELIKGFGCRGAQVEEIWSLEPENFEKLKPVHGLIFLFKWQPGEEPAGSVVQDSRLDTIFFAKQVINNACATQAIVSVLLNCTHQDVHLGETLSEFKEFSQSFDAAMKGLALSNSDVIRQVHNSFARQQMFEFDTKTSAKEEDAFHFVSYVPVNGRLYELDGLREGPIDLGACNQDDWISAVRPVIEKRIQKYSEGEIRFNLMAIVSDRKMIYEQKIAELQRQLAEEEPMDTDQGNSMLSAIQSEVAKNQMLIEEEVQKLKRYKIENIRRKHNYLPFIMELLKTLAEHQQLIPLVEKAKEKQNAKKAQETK
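Material: Human UCH37 enzyme supplied as purified proteasome complex | Schedule: 30 min compound-proteasome preincubation then 25 min substrate reaction, room temperature | Detection: AMC fluorescence from Ub-AMC cleavage, excitation 355 nm, emission 460 nm | Benchmarks: Wells without proteasome as full block, compound-free enzyme plus substrate as uninhibited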
B2AR ag = activates human beta-2 adrenergic receptor causing internalization | response, % (test concentration not listed) | 0.43% of 340,000 active | AID 504454 | Am2.2-beta2AR cells, FAP receptor internalization, flow cytometry; reference of the scale not given here | P07550;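 active = response above a set limit, near 3 SD of response in nonfluorescent compounds, cut at about 42% in these data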;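 note: stock transfer was 100 nL into about 11 µL; a reference agonist was the positive control; negative values mostly stem from fluorescent compounds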
Target sequence (P07550 whole entry, looked up): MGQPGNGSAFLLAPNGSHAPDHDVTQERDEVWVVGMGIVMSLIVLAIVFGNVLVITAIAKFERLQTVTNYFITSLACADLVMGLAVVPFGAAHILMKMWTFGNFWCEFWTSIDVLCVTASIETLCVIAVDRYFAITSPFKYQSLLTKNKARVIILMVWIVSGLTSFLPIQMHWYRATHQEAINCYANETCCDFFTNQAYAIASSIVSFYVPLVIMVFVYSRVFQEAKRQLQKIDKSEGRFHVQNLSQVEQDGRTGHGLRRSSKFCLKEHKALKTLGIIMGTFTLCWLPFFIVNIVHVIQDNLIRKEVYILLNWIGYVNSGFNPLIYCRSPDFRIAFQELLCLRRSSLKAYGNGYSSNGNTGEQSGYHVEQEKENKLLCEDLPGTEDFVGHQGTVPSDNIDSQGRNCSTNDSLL
T cruzi repl = blocks replication of Trypanosoma cruzi | T. cruzi beta-gal in NIH3T3, luminescence, 90 h | inhibition, % (test concentration not listed) | 1.4% of 300,000 active | AID 1885;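 active = mean inhibition across valid replicates above about 55%, limit read from the data; inconclusive = mean below that limit but half or more replicates reach it; inactive = mean below it, under half of replicates reach it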;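 note: signal also drops with host cell toxicity which is not excluded here; 0% = plate median of DMSO wells and 100% = zero luminescence signal; higher percent means less beta-gal luminescence so fewer parasites; stock transfer was 50 nL into about 50 µL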
Numbers without * were called inactive; u = inconclusive; x = no result given.

SMILES	LANA-H2A inh	RanGTP-Impb inh	Calb FLC	Bfl-1 A1 inh	Beta apoptosis	UCH37 inh	B2AR ag	T cruzi repl
Cn1c(=O)c2sccc2n(Cc2cccc(Br)c2)c1=O	3.4	1.5	6	0.8	x	2.3	4	-6
COc1cc(/C=C(/NC(=O)c2ccc(Cl)cc2Cl)C(=O)O)cc(OC)c1OC	0.6	1.5	-17	0.3	-7	1.3	-4	-6
Cc1ccc(N/N=C2/CCCNC2=O)cc1	7.6	4.8	-4	0.3	-3	x	0	7
COc1ccccc1C1CCN(C(=O)c2ccc(Cl)cc2)CC1	-3.3	1.4	28	-0.2	x	-0.8	x	4
O=C(O)C1CSC(c2ccccc2)N1C(=O)c1ccco1 (configuration not stated)	-3.2	0.7	-3	0.2	-9	0.7	-5	-23
C=C(C)CNC(=O)CCc1nnc(C2(c3ccc(Cl)cc3)CCC2)o1	-0.6	4.5	12	0.0	1	1.8	6	21
Cn1nnnc1SCC(=O)Nc1ccc2c(c1)OCO2	-1.5	-0.6	3	-0.7	4	x	-1	-4
CCOc1ccc(CNC(=O)NS(=O)(=O)c2ccc(OC)cc2)cc1	-1.7	-2.1	1	-0.4	-6	0.8	-5	-6
CCN(CC)c1cc(C)c2cc(NC(=O)CNC(C)=O)ccc2n1	0.4	5.5	-24	0.6	-12	-89	-5	-7
CCCNC(=O)c1ccccc1NC(=O)CN(c1ccccc1)S(=O)(=O)N(C)C	15	u	-1	0.5	-10	4.2	2	-18

The last 2 entries of the part above are carried over, then new ones follow:
SMILES	LANA-H2A inh	RanGTP-Impb inh	Calb FLC	Bfl-1 A1 inh	Beta apoptosis	UCH37 inh	B2AR ag	T cruzi repl
CCN(CC)c1cc(C)c2cc(NC(=O)CNC(C)=O)ccc2n1	0.4	5.5	-24	0.6	-12	-89	-5	-7
CCCNC(=O)c1ccccc1NC(=O)CN(c1ccccc1)S(=O)(=O)N(C)C	15	u	-1	0.5	-10	4.2	2	-18
Cc1ccc(OCc2nnc(SCc3nc4ccccc4[nH]3)n2Cc2ccco2)cc1	-5.7	-1.4	11	1.0	15	0.3	104*	5
O=C1C=C(NCc2ccncc2)CC(c2ccccc2)C1 (configuration not stated)	-1.0	7.1	-4	0.3	3	0.6	10	3
COc1cc([N+](=O)[O-])c(OC)cc1SCc1n[nH]c(=S)n1-c1ccc(C)cc1	-3.9	0.3	2	-0.7	0	4.5	6	-2
CN(NC(=O)c1ccc(Cl)cc1)c1cccc(Cl)n1	4.4	12	-16	0.0	2	0.4	5	-4
O=C(CC1SC(=Nc2ccc3c(c2)OCCO3)NC1=O)Nc1ccc(F)cc1F (configuration not stated)	3.0	4.5	-1	0.5	2	0.1	-3	3
CC(C)c1cc2c(c(O)c1O)[C@@]13CCCC(C)(C)C1CC2OC3=O (some centres not stated)	3.2	4.3	0	0.4	-7	-0.9	16	-30
COc1ccc2oc(C)c(C(=O)Cn3ccnc3)c2c1	8.8	4.7	5	0.2	-7	4.0	14	-18
CCNC(=O)C(=O)NCC1OCCCN1S(=O)(=O)c1ccc(F)cc1C (configuration not stated)	-7.0	4.2	-2	0.7	x	1.9	4	-11
COc1ccc(OC)c(CN2CCCC(CCC(=O)N(C)CCc3ccccn3)C2)c1 (configuration not stated)	-3.3	-2.6	-15	0.2	-1	-0.7	-6	47
COCCn1c(=O)[nH]c2cc(C(=O)NCCc3ccc(OC)c(OC)c3)ccc2c1=O	2.0	1.5	-8	0.1	0	0.6	8	-8
COc1ccccc1NC(=O)CC(NCCN(C)C)C(=O)O (configuration not stated)	1.5	-6.3	-7	0.2	-4	1.5	-2	17
COC(C[C@@H]1O[C@@H]1[C@@H](O)[C@@H](C)OCc1ccccc1)OC	x	-1.6	5	x	x	3.3	-3	-7
COc1ccc(OC)c(-n2cc3c(=O)n(C)c(=O)n(C)c3c2)c1	5.1	1.2	26	-0.9	-4	3.6	-2	-21
CC(=O)O/N=C(\N)c1ccc(-c2csnn2)cc1	0.4	-3.0	-1	-0.2	-3	x	-8	-30
CCN(CC)c1ccc(-n2c(C)cc(C=O)c2C)cc1	3.1	4.9	4	-0.6	10	4.0	5	2
Cn1c(COc2cccc3cccnc23)nnc1SCC(=O)O	1.6	1.9	-3	0.0	1	-1.3	5	-21
CCOC(=O)c1cnc2ccc(C(=O)OC)cc2c1Nc1ccc(C(=O)O)cc1	3.7	0.6	6	-0.5	5	5.4	0	1
Cc1sc(NC(=O)CSc2nnc(-c3ccccc3)o2)c(C#N)c1C	0.0	1.5	29	1.4	4	3.7	-1	-1
O=C(CCc1nc2ccccc2c(=O)[nH]1)Nc1nc(-c2cccs2)cs1	3.2	-1.8	-6	1.2	3	2.9	12	-2
CCCCN(C(=O)CCNC(=O)NC12CC3CC(CC(C3)C1)C2)c1c(N)n(CCC)c(=O)[nH]c1=O	-2.4	x	-4	0.0	3	4.9	-7	-4
CCC(NC(=O)NCc1ccccc1)(C(F)(F)F)C(F)(F)F	0.6	5.1	1	-1.1	2	5.8	-1	-1
COCCn1c(=NC(=O)CSC(C)=O)sc2cc(F)ccc21	-3.5	2.8	0	0.5	-1	0.6	0	-8
Cc1ccc2c(c1)N(S(=O)(=O)c1ccc3c(c1)NC(=O)CC(=O)N3)CCO2	x	1.8	-3	x	x	3.2	0	-8
COc1ccc(NC(=O)N(C)C[C@H]2Oc3c(NC(=O)NC4CCCCC4)cccc3C(=O)N([C@H](C)CO)C[C@@H]2C)cc1	-2.8	x	x	-0.3	0	10.0	2	x
COc1ccccc1CCNC(=O)c1ccccc1SCC(=O)N1CCCC1	-2.3	x	x	-1.5	-3	1.7	-1	x
CCOC(=O)c1sc(=S)n(-c2ccccc2Cl)c1SC	-6.5	0.5	44	-0.3	2	4.2	15	-1
CCc1ccc(NC(=O)CSc2nc(=O)n3cc(C)ccc3n2)cc1	-1.0	-0.3	-4	0.0	x	2.7	-1	-12
CCOC(=O)c1c(NC(=O)c2ccco2)sc(C(=O)N2CCCC2)c1C	-2.3	-2.0	2	0.0	5	-1.6	-16	9
C/C(=N\Nc1ccc([N+](=O)[O-])cc1)c1ccc(O)cc1	-1.6	-20	113*	-0.5	0	x	-215	-12
C#Cc1ccc(CN2CCCC(C(=O)Nc3ccccc3Oc3cccnc3)C2)cc1 (configuration not stated)	0.3	2.9	4	-1.1	-2	x	-17	42
CCOC(=O)c1c(NC(=O)/C=C/C(=O)O)sc(C)c1-c1ccc(C(C)(C)C)cc1	-6.4	-5.6	41	0.3	79*	16	16	57*
COc1cccc(NC(=O)Cn2c(=O)oc3cc(S(=O)(=O)N4CCCC4)ccc32)c1	2.7	5.5	3	-0.4	-2	0.2	-8	-7
COc1ccc2oc(C(=O)OCC(=O)N(Cc3ccccc3)C(C)C)c(C)c2c1	4.6	-2.5	-12	0.1	-2	-25	-5	-12
O=C(Nc1cc2c3c(c1)CC(=O)N3CCC2)c1ccc(Cl)cc1	1.4	u	3	-0.8	2	2.7	1	0
O=C(O)C1CCN(C(=O)c2cccc3ccccc23)CC1	5.6	-4.2	-2	0.2	1	3.5	5	-9
CCn1cc(C(=O)O)c(=O)c2cc(F)c(N3CCN(C(=S)NC(=O)c4ccc(F)cc4)CC3)cc21	0.1	0.7	-1	0.0	0	-2.4	0	4
Cc1ccc(Nc2nnc(SCC(=O)Nc3ccccc3[N+](=O)[O-])s2)cc1	-1.0	3.6	0	-0.7	-8	3.9	-4	-5
Cc1ccc(-c2nc(C(=O)O)cs2)cc1	0.6	0.8	2	0.1	3	-1.1	2	-11
CCCc1cc(C(=O)Nc2ccccc2C(=O)OC)no1	0.0	2.2	-1	0.2	-2	2.4	2	-6
Cc1[nH]n(-c2ccccc2)c(=O)c1-c1ccc(Cl)cc1	1.4	-1.1	-8	1.3	-4	4.0	13	-8
COc1cc(CNCc2ccc(OC)c(OC)c2OC)cc(OC)c1	37*	x	x	-0.1	x	-0.1	19	x
CC(=O)c1ccc(OC(C)C)c(Cc2c(O)nc(N)[nH]c2=O)c1	-0.8	-1.6	-4	0.7	-1	5.0	-4	-4
CC(C)(C)OC(=O)C[C@H]1C/C=C\C[C@H](CC(=O)N(CCO)Cc2ccccc2)C(=O)N[C@@H](c2ccccc2)COC1=O	-1.3	x	x	0.8	1	2.2	0	x
Cc1ccc(C(O)CSc2nnc(-c3ccc4ccccc4c3)n2C)cc1 (configuration not stated)	5.4	3.2	-9	0.1	7	3.5	-8	10
CC(C)OC(=O)CSc1nc2ncccc2[nH]1	2.2	-1.4	-5	0.2	2	5.4	-5	-10
COc1ccc(-c2nnc(SCC(=O)NC3CCCCC3)o2)cc1	-4.3	-0.8	u	0.1	-2	4.7	11	-1
Cc1ccc2cc(CN(CC3CCCO3)C(=S)Nc3ccccc3)c(=O)[nH]c2c1 (configuration not stated)	-2.7	-0.8	34	0.5	-10	4.2	-1	1
CC(NC(=O)C12CC3CC(CC(O)(C3)C1)C2)c1ccccc1 (configuration not stated)	0.0	6.8	6	-0.8	-4	1.9	8	-2
COCCn1c(SCC(=O)Nc2cccnc2Cl)nc2ccccc21	2.5	x	x	1.1	1	-0.4	-16	x
Cc1ccc(NC(=O)C2Cc3ccccc3CN2C(=O)c2ccccc2)cc1Cl (configuration not stated)	-5.0	2.9	1	-0.5	0	2.4	-4	20

Later entries:
SMILES	LANA-H2A inh	RanGTP-Impb inh	Calb FLC	Bfl-1 A1 inh	Beta apoptosis	UCH37 inh	B2AR ag	T cruzi repl
Cc1ccccc1CSc1nc2ccccc2c(=O)[nH]1	3.3	6.4	34	0.3	6	2.9	7	19
O=C(NNC(=S)NC(=O)c1cccs1)c1cccnc1	-1.1	-3.3	-16	0.0	8	8.1	-1	-10
Cc1ccc(-n2nc3c(c2NC(=O)c2ccc4c(c2)OCO4)CS(=O)(=O)C3)cc1	-2.1	-1.6	-1	0.7	-7	0.6	4	-30
CCOC(=O)c1nnc(-c2cccs2)nc1Oc1ccccc1C(=O)OC	-2.4	-0.2	7	-1.7	2	4.5	10	7
Cc1ccc(C2C(C#N)=C(N)SC(N)=C2C#N)o1	3.1	u	16	-0.5	-7	x	x	-6
CCCCS(=O)(=O)Nc1ccc(N2CCOCC2)c(S(=O)(=O)N2CCOCC2)c1	-1.4	u	-1	-0.5	-3	0.0	5	6
Cc1ccc(C23CC4CC(CC(C(N)=O)(C4)C2)C3)cc1	-2.6	-3.5	-6	-0.1	-2	3.2	-3	-13
OC(c1ccccc1)(c1ccccc1)C1CCN(C(=S)NC2CCCC2)CC1	3.4	3.5	19	0.5	-12	3.2	-1	3
COc1cccc(C(c2c(N)n(C)c(=O)n(C)c2=O)C(C)[N+](=O)[O-])c1 (configuration not stated)	0.6	-0.5	0	0.0	-10	5.8	6	-14
COc1ccc(-n2cc(-c3ccccc3)c3c(NN4CCOCC4)ncnc32)cc1	2.9	2.1	35	0.8	12	1.1	8	18
CC(NC(=O)c1ccc(CS(C)(=O)=O)cc1)c1ccc(-n2ccnc2)cc1 (configuration not stated)	-1.6	1.1	-6	0.5	0	2.7	16	2
COc1ccccc1/C=N/NC(=O)CC(=O)NC1CCCCC1	2.9	-2.8	3	0.2	-5	x	-5	5
